High-throughput results as filed in PubChem.
miR-21 FLuc: qHTS Assay for Modulators of miRNAs and/orActivators of miR-21; 340,000 tested, under 10 active; AID 2288, 2010; Potency, µM (titrated, usually from 38.3 µM), for inactives: top-dose reporter change, positive = more light; HeLa miR-21 FLuc reporter, luciferase, 48 h; active = well fitted rising curve with a large enough effect; inconclusive = small, poorly fitted or top-dose-only effect; inactive = no such curve, though single readings can be large or run the other way;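 note: % of control where 0% means no effect; miR-21 action dims this reporter so a rising signal means less miR-21 action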
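HeLa cells endogenously expressing miR-21, stably carrying CMV-driven firefly luciferase with a downstream miR-21 binding site, 2000 cells/well. Titrations up to approximately 40 uM, 48 hours; luciferase luminescence read.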
Rango-impB inh: qHTS Assay for Inhibitors of Rango (Ran-regulated importin-beta cargo) - Importin beta complex formation | Importin subunit beta-1 (Homo sapiens), Q14974 | Rango CFP/YFP FRET sensor + importin beta, 45 min | Potency, µM (series often up to 92.2 µM), without a hit: at the highest dose inhibition of complex formation | 340,000 compounds, 0.031% hits; active = rising FRET ratio curve, often small or poorly fitted; inconclusive = mostly compound fluorescence or quenching in the first reads; inactive = flat curves in all reads;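 note: potency is the fitted concentration of half-maximal effect; 0% = DMSO wells and 100% = buffer wells lacking importin beta; nearly all actives have a fitted effect of over 15% in size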
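FRET biosensor (snurportin 1 IBB flanked by EYFP and cerulean), 50 nM, with compound 5 min, then 0.125 microM importin beta in PBS, 1 mM DTT, 0.02% Tween-20, 0.1% BSA. CFP/YFP ratio read after 45 min at room temperature; pre-read flags interference.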
Rango dissoc inh: qHTS Assay for Inhibitors of RanGTP induced Rango (Ran-regulated importin-beta cargo) - Importin beta complex dissociation. Snurportin-1 (Homo sapiens) + GTP-binding nuclear protein Ran (Homo sapiens) + Importin …. Biochemical FRET Rango-importin beta, RanGTP-induced dissociation. Potency, µM (titrated, usually from 46.1 µM), inactives show top-dose activity change, negative = inhibition. 340,000 compounds, 0.071% hits. AID 540253, 2011; active means falling FRET ratio curve, often poorly fitted, with flat reads before Ran was added; inconclusive means other falling curves, or compound fluorescence or quenching; inactive means flat or rising ratio curve;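 note: potency is the fitted concentration of half-maximal effect; % of control where 0% means no effect; nearly all actives have a fitted effect of over 45% in size; -100% = wells without RanGTP and RCC1; the record marks most hits as doubtful in a second field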
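Rango (0.1 uM)–importin beta (0.25 uM) complex; RanGTP-RCC1 trigger; 45 min RT; CFP/YFP FRET read.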
GLA inh pH 4.5: qHTS Assay for Inhibitors of Human alpha-Galactosidase at pH 4.5; purified enzyme, 4-MU-alpha-Gal fluorescence, pH 4.5; activity change, negative = inhibition, % at 105 µM; AID 1467, 2008; 230,000 tested, under 10 active; inconclusive = small, poorly fitted or top-dose-only inhibition, or a rising curve; inactive = flat fitted curve, though single readings scatter; no compound was filed as active;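 note: 0% = full activity with enzyme and -100% = basal without enzyme; dose as in the result columns while the protocol names 77 µM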
Target sequence (P06280 whole entry, looked up): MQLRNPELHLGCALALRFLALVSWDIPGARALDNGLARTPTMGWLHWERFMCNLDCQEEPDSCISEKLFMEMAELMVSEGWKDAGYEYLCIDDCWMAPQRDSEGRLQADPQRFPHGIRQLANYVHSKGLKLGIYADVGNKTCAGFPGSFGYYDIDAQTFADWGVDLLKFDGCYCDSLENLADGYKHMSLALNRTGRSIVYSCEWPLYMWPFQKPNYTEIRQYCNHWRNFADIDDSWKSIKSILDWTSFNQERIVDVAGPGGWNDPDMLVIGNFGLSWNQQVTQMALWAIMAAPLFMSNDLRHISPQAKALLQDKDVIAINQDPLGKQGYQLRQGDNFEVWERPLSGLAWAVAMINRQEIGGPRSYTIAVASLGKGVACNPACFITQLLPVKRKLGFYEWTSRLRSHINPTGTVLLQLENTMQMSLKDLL
* marks the source's active call; other numbers are inactive results; ? = inconclusive; / = no result given; & = joins results of further samples. An excerpt; count on the stated rates, not on these rows.

Every second line gives: Rango-impB inh	GLA inh pH 4.5	Rango dissoc inh	miR-21 FLuc
> COC(=O)C1=C(NC(=O)CCCCl)CCS1
→ ?	-2	0%	2%
> O=C(NC(Cc1ccccc1)C(=O)N1CCc2ccccc2C1)c1ccccc1 (stereo not drawn)
→ 0.2%	/	6%	13%
> COc1cc(OC)cc(-c2nnc(SCc3ccc(C(=O)O)cc3)o2)c1
→ -3.8%	/	3%	-4%
> CC(NC(=O)C1CC1)C(c1cccs1)N1CCN(c2ccccc2)CC1 (stereo not drawn)
→ -12%	3	-12%	-2%
> COc1ccc(/C=C2\SC(=O)N(CCC(=O)N3CCN(C)CC3)C2=O)cc1
→ 5.4%	/	18%	0%
> COc1ccc(OCCCC(=O)N(CCC2=CCCCC2)c2c(N)n(Cc3ccccc3)c(=O)[nH]c2=O)cc1
→ -1.3%	/	-3%	/
> CC1=C(C(N)=O)C(c2ccc(Cl)cc2)NC(=O)N1 (stereo not drawn)
→ -2.7%	-6	11%	-3%
> O=C(Nc1cc2c(cc1Cl)-c1ccc([N+](=O)[O-])cc1C2=NO)C(F)(F)F
→ 9.9%	/	1%	/
> C/C(=N\NC(=O)c1ccc2ccccc2c1)c1cccs1
→ 4.8%	/	0%	-39%
> COc1ccc(C(=O)CSc2nc3ccccc3n2CC(=O)NC(C)(C)C)cc1
→ -2.7%	-15	8%	-5%
> NCCCC[C@H]1CNC(=O)C(=O)N1CCC12CC3CC(CC(C3)C1)C2
→ -0.5%	-21	8%	-2%
> O=C(Oc1ccc(-c2cn3c(n2)SCC3)cc1)c1ccccc1
→ -0.7%	-5	10%	-13%
> CCn1cc(CNC(=O)C2CCC(=O)N(Cc3ccc(Cl)cc3)C2)cn1 (stereo not drawn)
→ 1.7%	/	5%	1%
> O=C(CCNS(=O)(=O)c1ccc2nsnc2c1)N1CCN(c2ccncc2)CC1
→ -2.0%	/	5%	/
> Cn1cc(Cl)c(C(=O)NNC(=S)NC2CCCCC2)n1
→ -2.2%	4	0%	-43%
> CNC(=S)NNC(=O)c1ccc(=O)n(Cc2ccc(Cl)cc2Cl)c1
→ 2.5%	2	-1%	-11%
> c1coc(CNc2nc(N3CCCCC3)nc3ccccc23)c1
→ 1.4%	25	18%	14%
> Cc1cc(OCC(=O)Nc2nnc(C3CC3)s2)ccc1C(C)C
→ -3.1%	/	-3%	/
> CN(C)CCNc1nc2c(c(=O)[nH]c(=O)n2C)n1CC(O)COc1ccc(Cl)cc1Cl (stereo not drawn)
→ -1.1%	10	-1%	-12%
> COCCCNC(=O)c1ccc(Cn2c(=O)[nH]c3ccccc3c2=O)cc1
→ 0.2%	1	1%	11%
> Cc1ccc(NC(=O)C2CCCCC2C(=O)O)cc1Cl (stereo not drawn)
→ -0.4%	9	3%	-4%
> O=C(c1cc(Br)c(Br)s1)N1CCOCC1
→ 0.1%	/	10%	/
> C=CCn1nnnc1SCC(=O)Nc1ccccc1C(=O)OC
→ 4.2%	1	13%	-9%
> O=C(NCc1cccs1)C1CCN(S(=O)(=O)c2ccc3c(c2)OCCO3)CC1
→ 1.9%	3	7%	-3%
> O=C(CCCCCNC(=O)c1ccccc1)N=Nc1c(O)[nH]c2c(Br)cc(Br)cc12
→ /	-3	/	2%
> Cc1ccc(S(=O)(=O)N2[C@@H](c3cccc(Cl)c3)C(C(=O)O)=CC[C@H]2c2ccc(C(C)C)cc2)cc1
→ -0.1%	/	0%	/
> Cc1cccc(NC(=O)Cn2nnc3sc4c(c3c2=O)CC(C)(C)OC4)c1
→ -0.5%	-6	-17%	-1%
> CC(C)CNC(=O)c1ccccc1N(Cc1ccccc1)S(C)(=O)=O
→ -2.2%	/	-3%	-3%
> CCCCN(C)C(=O)c1cc2c(Cl)nc3ccccc3c2s1
→ 0.0%	/	-3%	-9%
> CCOC(=O)C1(Cc2ccc(O)cc2)NC(c2ccccc2F)C2C(=O)N(C)C(=O)C21 (stereo not drawn)
→ -0.7%	-18	1%	5%
> CCc1nn(CCCC(=O)NCc2cc(Br)ccc2OC)c(=O)c2cc3occc3n12
→ -1.3%	/	0%	-10%&-17%
> O=C(NCC(c1ccco1)N1CCN(c2ccccc2)CC1)C(=O)NC1CCCC1 (stereo not drawn)
→ 4.3%	/	16%	/
> COc1cc(NC(=S)N2CCN(S(=O)(=O)c3ccc(C)cc3)CC2)cc(OC)c1
→ -1.6%	/	-4%	-2%
> CC(=C\c1ccccc1)/C=C1/SC(=S)N(CCC(=O)Nc2ccccn2)C1=O
→ /	-4	/	0%
> Cc1cc(=O)[nH]c(NN)n1
→ 2.0%	0	35%	-4%
> CCOC(=O)C1=C(O)C(=O)N(Cc2ccccc2)CC1
→ -0.2%	-1	2%	-1%
> O=C(NCC(c1ccco1)N1CCCC1)c1ccc(S(=O)(=O)Nc2ccc(F)cc2)cc1 (stereo not drawn)
→ -0.8%	/	-2%	/
> O=S(=O)(c1ccccc1Br)N(CC(O)COCc1ccccc1)C1CC1 (stereo not drawn)
→ 3.4%	/	14%	/
> FC(F)(F)c1cc(Oc2ccc(Cl)cc2)ncc1-c1nnc(-c2ccc(Cl)cc2)o1
→ 0.8%	-8	?	3%
> COc1ccc(-c2cc(C(=O)N3CCN(C(=O)c4ccccc4F)CC3)[nH]n2)cc1
→ 3.6%	/	?	-3%
> CS(=O)(=O)N1CCN(Cc2ccc([N+](=O)[O-])cc2)CC1
→ -3.1%	-2	-8%	-1%
> CS(=O)(=O)c1ncc(Cl)c(C(=O)Nc2ccc(N3CCOCC3)cc2)n1
→ -3.4%	6	0%	?
> CC(C)NC(=O)C1c2ccccc2Oc2ccccc21
→ 0.4%	/	2%	1%
> CC[C@]12c3[nH]c4ccc(Cl)cc4c3CCN1C(=O)[C@@H](CC(=O)NC/C=C(\C)CCC=C(C)C)C[C@@H]2C(=O)N1CCN(C(=O)c2ccco2)CC1
→ -0.9%	/	-3%	/
> CN(C)C(=S)c1ccccc1
→ -0.2%	-4	-1%	0%
> CCN(c1ccccc1)S(=O)(=O)c1ccc(Cl)c(NC(=O)CNCc2ccccc2OC)c1
→ 1.6%	/	-8%	/
> O=C(Nc1ccccc1N1CCOCC1)c1cccc([N+](=O)[O-])c1
→ 3.2%	-1	10%	-2%
> Fc1ccc(NC(=S)Nc2cccnc2)c(Cl)c1
→ -1.6%	-14	-1%	4%
> Cc1ccc(NC(=O)CSc2nccc(=O)[nH]2)c(S(=O)(=O)N2CCOCC2)c1
→ ?	5	32%	4%
> CCc1cc(C(=O)NC2CCCc3c2cnn3-c2cccc(C)c2C)n(C)n1 (stereo not drawn)
→ 2.5%	/	3%	16%
> C/C(CCc1ccccc1)=N\NC(=S)NCCc1ccccc1
→ 4.7%	/	11%	0%
> CCOc1nc(NCCC2=CCCCC2)nc(N2CCOCC2)n1
→ 5.1%	-4	15%	-8%
> CCCCN1C(=O)C(=O)N(CC(=O)c2ccc3c(c2)CCCC3)C1=O
→ -0.5%	/	6%	/
> O=C(O)C1C2C=CC(C2)C1C(=O)OCC1CCCO1 (stereo not drawn)
→ 2.2%	-1	0%	-8%
> N/C(=N\OS(=O)(=O)c1cccc([N+](=O)[O-])c1)c1ccncc1
→ -1.7%	-7	13%	-3%
> Oc1cccc(C(O)CNCc2ccc(OCc3ccc(Cl)cc3Cl)cc2)c1 (stereo not drawn)
→ 0.0%	0	-6%	-13%
> Cc1cc(C)n(C(=O)Cn2nc(C)c(Br)c2C)n1
→ 3.3%	/	-4%	0%
> COc1ccc(OC)c(C2C3=C(N=C4SCC(=O)N42)c2ccccc2CC3)c1 (stereo not drawn)
→ -2.6%	-4	-4%	-10%
> CN(C(=O)COC(=O)CSc1cc(Cl)ccc1Cl)c1c(N)n(Cc2ccccc2)c(=O)[nH]c1=O
→ -1.6%	/	-8%	/
> O=C(O)c1cccnc1SCc1ccc([N+](=O)[O-])cc1
→ -2.7%	/	-19%	-5%

Some of the entries above in another layout:
SMILES: CCN(c1ccccc1)S(=O)(=O)c1ccc(Cl)c(NC(=O)CNCc2ccccc2OC)c1
  Rango-impB inh = 1.6%; GLA inh pH 4.5 = /; Rango dissoc inh = -8%; miR-21 FLuc = /

SMILES: CCOc1nc(NCCC2=CCCCC2)nc(N2CCOCC2)n1
  Rango-impB inh = 5.1%; GLA inh pH 4.5 = -4; Rango dissoc inh = 15%; miR-21 FLuc = -8%

Continuation:
Every second line gives: Rango-impB inh	GLA inh pH 4.5	Rango dissoc inh	miR-21 FLuc
> Nc1nc(-c2ccccc2)cn1/N=C/c1ccccc1
→ 4.2%	0	6%	-47%
> Cc1ccccc1CSc1ccc(-c2ccc3c(c2)OCO3)nn1
→ 0.4%	-15	3%	-63%
> CS(=O)(=O)c1ccc(NC(=O)c2cccc(S(=O)(=O)N3CCN(Cc4ccccc4)CC3)c2)cc1
→ -0.7%	/	-8%	12%
> COc1ccccc1Oc1ccc(N/C=C/C(=O)c2ccco2)cc1
→ ?	-6	?	-48%
> COC(=O)NC1(C(=O)O)CCCC1
→ 0.4%	-1	-8%	-7%
> COc1ccc(CC(=O)O/N=C(\N)Cc2ccc(OC)c(OC)c2)cc1
→ -1.8%	-2	1%	-7%
> COc1ccc(N(CC(=O)NC2CCCC2)C(=O)c2ccc(N3CCCCC3)nc2)cc1
→ 0.2%	1	-18%	-3%
> CC1(C)CC(=O)C2=C(C1)NCN(Cc1ccc3c(c1)OCO3)C2
→ 9.1%	0	-4%	3%
> O=C(N/N=C/c1c[nH]c2ccccc12)c1cc(-c2ccc3ccccc3c2)n[nH]1
→ -0.2%	3	-7%	12%
> O=C(NCc1cccs1)C(=O)NCC1OCCCN1S(=O)(=O)c1cc(F)ccc1F (stereo not drawn)
→ -0.4%	/	-6%	0%
> CCn1c(SCc2ccccc2)nc2cc(OC)c(OC)cc2c1=O
→ 0.3%	/	-15%	1%
> COc1ccc(S(=O)(=O)N(C)CC(=O)Nc2ccc(C(F)(F)F)cc2)cc1Cl
→ 0.4%	1	-15%	1%
> CCOc1ccc(NC(=O)CSc2nnnn2C2CC2)cc1S(=O)(=O)N1CCCC1
→ -4.8%	/	14%	/
> O=c1/c(=C\c2cccn2-c2ccccc2)sc2nc3ccccc3n12
→ 5.0%	3	-26%	-16%
> Cc1sc2ncnc(NCc3ccco3)c2c1C
→ ?	6	-10%	-20%
> O=C1Nc2ncccc2OC1CCCl (stereo not drawn)
→ -0.2%	-7	-17%	-1%
> COc1ccc2nc(C)cc(SCC(=O)N/N=C/c3ccc(O)cc3O)c2c1
→ 1.3%	-8	3%	16%
> O=C(NCCC1CCCCN1S(=O)(=O)c1ccccc1)C(=O)Nc1ccc(F)cc1F (stereo not drawn)
→ 0.8%	/	-2%	/
> CN(C)C(CNC(=O)c1ccc2c(=O)n(-c3ccccc3F)c(=S)[nH]c2c1)Cc1ccccc1 (stereo not drawn)
→ 2.3%	-2	-15%	3%
> CC(C)CC(=O)c1c[nH]c(C(=O)NCCCN2CCOCC2)c1
→ -4.1%	4	0%	-2%
> COc1cc(OC)cc(C(=O)NCC(=O)OCc2ccc(Cl)c(Cl)c2)c1
→ 3.8%	/	1%	/
> CCn1cc(NC(=O)CCl)c(C)n1
→ /	0	/	25%
> COc1ccc(S(=O)(=O)Nc2nnc(C(C)(C)C)s2)cc1
→ 5.2%	4	0%	-3%
> Cc1ccc(OC(=O)CCC(=O)Nc2ccc(Br)cc2)cc1
→ -0.6%	1	12%	-3%
> COc1ccc(-c2cc(C(=O)N(C)Cc3ccc(OC)c(OC)c3OC)c3ccccc3n2)cc1OC
→ -1.2%	/	-2%	/
> C/C(=N\Nc1ccccc1)c1cccc(N)c1
→ ?	/	17%	-43%
